Screens: PubChem, National Center for Advancing Translational Sciences (NCATS)
ClpP mod – qHTS Assay for Activators of ClpP | ATP-dependent Clp protease proteolytic subunit (Bacillus subtilis (strain 168)), P80244 | purified B. subtilis ClpP, FRET peptide cleavage, 20 min | Potency, µM (top dose mostly 57.5 µM), for inactives: top-dose activity change, negative = active | 1.9% of 340,000 active; active = well fitted falling curve with a large enough effect; inconclusive = small, poorly fitted or top-dose-only effect; inactive = no such curve, though single readings can be large or run the other way; note: potency is the fitted concentration of half-maximal effect; the source files actives as falling curves though it sought activators and does not explain the sign; nearly all actives have a fitted effect of over 65% in size; many hits overshoot -100%
Target sequence (P80244 whole entry, looked up): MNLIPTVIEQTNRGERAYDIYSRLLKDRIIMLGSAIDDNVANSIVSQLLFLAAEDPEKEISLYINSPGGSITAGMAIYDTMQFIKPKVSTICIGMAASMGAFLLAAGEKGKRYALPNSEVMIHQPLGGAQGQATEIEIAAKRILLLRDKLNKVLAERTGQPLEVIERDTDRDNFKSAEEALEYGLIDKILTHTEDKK
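FRET quenching reversal measured ClpP activation: 10 microg/mL B. subtilis ClpP at pH 8 with the FRET-FV decapeptide, read at 430 nm after 320 nm excitation. The 20-min minus 0-min signal was scaled between DMSO/no-enzyme wells and ADEP (5.8 microM final).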
gsp antagonist – antagonists of gsp mutant (McCune-Albright syndrome); gsp-mutant cells, cAMP HTRF, 30 min; control for the full effect not named in the record; Potency, µM (titrated, usually from 76.9 µM), for inactives: top-dose activity change, negative = inhibition, hits mostly inhibitors; 0.4% of 340,000 active; AID 624288; active = falling curve of any shape with a large fitted effect; inconclusive = falling curve, mostly with a smaller effect; inactive = flat or rising curve; cell line not stated here;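 note: intracellular cAMP measured with PDE inhibitor Ro 20-1724 present during compound exposure; potency is the fitted concentration of half-maximal effect; % is set by controls: 0 for no effect and ±100 for the full control effect; nearly all actives have a fitted effect of over 65% in size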
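Measurement of cellular cAMP by homogeneous time-resolved fluorescence following a 30 min compound exposure at 37C. The PDE inhibitor […] was present throughout; the assay buffer was DPBS with 0.05% BSA and 0.005% Tween 20.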
D2 potentiator – positive allosteric modulators of human D2 dopamine receptor; P14416; DiscoveRx D2 beta-arrestin cells, luminescence, 90 min; 100% = 57 uM dopamine signal; potentiation, % (test concentration not listed); 0.23% of 360,000 active; active = potentiation of 50% or more; inconclusive = 30% to 50%; inactive = 30% or less;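 note: compound concentration not given in the record; tested on top of an EC20 dose of dopamine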
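D2 cells co-treated with compound plus 50 nM dopamine (EC20) for 90 min at 37 deg C to detect potentiation. Beta-arrestin recruitment was read as enzyme-fragment luminescence after 1 h at ambient temperature. Full response was set by 57 uM dopamine.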
Sfp inh – blocks B. subtilis Sfp PPTase activity; Q9F4F7; Biochemical Sfp PPTase activity, qHTS; Potency, µM, inactives show max response, negative = inhibition, hits mostly inhibitors; 3.5% of 310,000 active; AID 1490; active = well fitted inhibition curve with a large enough effect; inconclusive = small, poorly fitted or top-dose-only effect, or another doubt; inactive = no such curve, though single readings can be large or run the other way;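 note: the enzyme is Sfp with the accession as filed and its product quenches rhodamine fluorescence; potency is the fitted concentration of half-maximal effect; 0% = enzyme reaction without inhibitor and -100% = no enzyme wells; top concentration of the series not given in the record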
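Buffer: 50 mM Hepes-Na pH 7.6, 10 mM MgCl2, 0.01% Nonidet P-40, 0.01% BSA. Enzyme 15 nM, pre-exposed to compound 15 min; substrates then added and fluorescence change tracked over 30 min.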
gsp ag – gsp mutant agonism; Potency, µM (titrated, usually from 76.9 µM), for inactives: top-dose activation (cAMP increase), hits mostly activators; 0.13% of 340,000 active; gsp mutant cells, cAMP HTRF, 30 min; control for the full effect not named in the record; active = well fitted activation curve with a large enough effect; inconclusive = small, poorly fitted or top-dose-only effect, or another doubt; inactive = no such curve, though single readings can be large or run the other way; cell line not stated here;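 note: phosphodiesterase inhibitor Ro 20-1724 added with compounds to block cAMP breakdown; potency is the fitted concentration of half-maximal effect; nearly all actives have a fitted effect of over 60% in size; about a fifth of the inactives were tested at one dose only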
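Cells stably selected in G418 were plated at 2000/well, grown 16-24 hr, then given compounds in DMSO with the PDE inhibitor […] (300 uM solution added) for 30 min at 37C; cAMP was read by HTRF.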
Menin-MLL FL inh – menin-MLL binding inhibition, fluorescein peptide. Fluorescence polarization, fluorescein-MLL peptide displacement from menin. FP activity change, % at 61.4 µM. 290,000 tested, under 10 active. AID 1766; inconclusive = falling polarisation curve, or a change in total fluorescence; inactive = total fluorescence flat and polarisation flat or rising; no compound was filed as active; the % refers to the polarisation; negative = inhibition;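 note: % of control where 0% means no effect; inhibitors lower the polarisation; unlabelled MLL peptide was the positive control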
TRPV1 potentiator – potentiators of human vanilloid receptor 1 (TRPV1); TRPV1-expressing cells, Fluo-8 calcium influx, capsaicin EC20 potentiation; host cell line not named in the record; control for the full effect not named in the record; potentiation, % at 8.33 µM; 0.02% of 320,000 active; active means potentiation above 80%; inconclusive means 30% to 80%; inactive means below 30%; note: 0% is about no effect
Target sequence (Q8NER1 whole entry, looked up): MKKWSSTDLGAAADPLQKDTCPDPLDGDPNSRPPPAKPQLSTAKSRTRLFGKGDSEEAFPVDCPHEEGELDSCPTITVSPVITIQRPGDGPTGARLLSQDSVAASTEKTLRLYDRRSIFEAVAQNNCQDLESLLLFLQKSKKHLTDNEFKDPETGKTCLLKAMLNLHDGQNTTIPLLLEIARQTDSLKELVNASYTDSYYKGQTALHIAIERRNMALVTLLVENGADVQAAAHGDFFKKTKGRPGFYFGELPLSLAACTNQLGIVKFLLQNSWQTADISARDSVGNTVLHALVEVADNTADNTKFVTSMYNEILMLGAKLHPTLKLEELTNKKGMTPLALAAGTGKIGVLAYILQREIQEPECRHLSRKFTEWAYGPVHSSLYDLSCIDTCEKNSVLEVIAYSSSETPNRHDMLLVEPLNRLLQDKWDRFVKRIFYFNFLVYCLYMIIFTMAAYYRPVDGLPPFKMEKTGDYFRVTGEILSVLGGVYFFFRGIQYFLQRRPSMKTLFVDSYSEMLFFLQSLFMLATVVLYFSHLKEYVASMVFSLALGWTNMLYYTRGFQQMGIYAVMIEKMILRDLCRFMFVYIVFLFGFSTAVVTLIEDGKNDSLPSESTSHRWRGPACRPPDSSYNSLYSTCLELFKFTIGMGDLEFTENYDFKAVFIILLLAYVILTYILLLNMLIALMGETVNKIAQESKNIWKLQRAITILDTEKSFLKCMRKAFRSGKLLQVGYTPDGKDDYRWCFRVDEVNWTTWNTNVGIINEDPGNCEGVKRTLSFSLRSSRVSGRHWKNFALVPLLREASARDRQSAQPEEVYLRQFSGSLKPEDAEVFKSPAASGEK
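TRPV1-expressing cells were cultured overnight at 35.5C and loaded with Fluo-8 calcium dye for 40 to 90 min at room temperature. After a 10 s baseline, compound was added and calcium influx was read kinetically for 3 min (ex 480/em 520 nm).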
Starred values were filed as active, the others as inactive; ? = inconclusive; . = no result given; & = joins results of further samples; [ ] = dose if it differs, or a comment.

SMILES | ClpP mod | gsp antagonist | D2 potentiator | Sfp inh | gsp ag | Menin-MLL FL inh | TRPV1 potentiator
COc1ccc2c(c1)OC(c1ccccc1)(C(F)(F)F)NC2=O (stereo not given) | -0.3% | 6% | -4 | 2% | -2%[15.4 µM] | -0.6 | 10
Cc1cc(S(=O)(=O)Nc2ccc(C(=O)NCC(c3ccco3)N3CCCCC3)cc2)ccc1F (stereo not given) | -1.0% | -11% | -21 | . | 14% | . | -5
c1csc(-c2nn3c(Cn4cnc5ccccc54)nnc3s2)c1 | -21% | -5% | 6 | -85% | 9% | 2.8 | 15
S=c1[nH]nc(-c2cc(-c3ccccc3)n[nH]2)n1/N=C/c1c(Cl)cccc1Cl | . | -17% | -13 | 40µM* | -6%[15.4 µM] | -2.8 | .
O=C(CN1CCOCC1)n1c2ccccc2c2ccccc21 | 2.2% | 2% | -16 | -3% | -9% | -6.7 | 6
COC(=O)c1sc(NC(=O)c2c(-c3ccccc3)noc2C)nc1C | -5.0% | -2% | -13 | 29% | ? | . | -1
COC(=O)CSc1nnc(CNC(=O)c2ccc(S(=O)(=O)N(C)C)cc2)n1C | . | 1% | -9 | 2% | -33%[inhibitor] | 1.7 | 2
COc1ccc(-c2cn3c4c(sc3n2)CCCC4)cc1 | 1.1% | -8% | -8 | 79µM* | -19% | -0.6 | -18
C[C@H]1CC[C@H]2C(=O)N3[C@H](c4cccc(N5CCCC5=O)c4)[C@@H](C)CC[C@H]3C(=O)N2[C@@H]1c1cccc(N2CCCC2=O)c1 | . | . | . | -17% | . | -1.6 | 0
COc1ccc(C(=O)COC(=O)C2CCN(S(=O)(=O)c3cccc4cccnc34)CC2)cc1 | -2.1% | -10% | -5 | 1% | -22% | 1.2 | ?
COc1ccccc1-c1nc2ccc(Cl)cc2c(=O)n1O | -2.6% | -13% | 5 | 2% | -7% | 4.5 | 14
CCOC(=O)c1cc(-c2csc(-c3ccc(C(F)(F)F)cc3)n2)on1 | 1.4% | -30% | -4 | 10% | 7%[15.4 µM] | 1.9 | .

2 records picked at random from the list so far:
SMILES | ClpP mod | gsp antagonist | D2 potentiator | Sfp inh | gsp ag | Menin-MLL FL inh | TRPV1 potentiator
Cc1cc(S(=O)(=O)Nc2ccc(C(=O)NCC(c3ccco3)N3CCCCC3)cc2)ccc1F (stereo not given) | -1.0% | -11% | -21 | . | 14% | . | -5
S=c1[nH]nc(-c2cc(-c3ccccc3)n[nH]2)n1/N=C/c1c(Cl)cccc1Cl | . | -17% | -13 | 40µM* | -6%[15.4 µM] | -2.8 | .

Remaining list, next part.
SMILES | ClpP mod | gsp antagonist | D2 potentiator | Sfp inh | gsp ag | Menin-MLL FL inh | TRPV1 potentiator
CCN1CCN(C(=S)c2ccc(OC)cc2)CC1 | . | -8% | -16 | 11µM* | 9%[15.4 µM] | 2.7 | ?
CS(=O)(=O)N1c2ccccc2[C@@]2(Br)C[C@H]3C(=O)N[C@@H](Cc4ccccc4)C(=O)N3[C@@H]12 | 0.2% | 1% | -7 | . | 10% | . | .
Cc1csc(NC(=O)c2ccc(S(=O)(=O)N(C)c3ccccc3)cc2)n1 | -0.6% | 0% | -1 | 0% | -6% | 6.8 | -2
C[C@H](CO)N1C[C@H](C)[C@@H](CN(C)Cc2ccc(Oc3ccccc3)cc2)Oc2c(NC(=O)C3CC3)cccc2C1=O | -3.1% | ? | -9 | . | -8% | . | .
COc1ccc(-c2nc(-c3ccncc3)no2)cc1 | -3.1% | 10% | 5 | 9% | -7% | -1.7 | 14
CC(OC(=O)c1ccccn1)C(=O)Nc1ccc(C(F)(F)F)cc1 (stereo not given) | 1.7% | 10% | -2 | . | -12% | . | 4
N/C(=N\OC(=O)Cc1ccccc1[N+](=O)[O-])c1ccncc1 | -2.0% | 13% | 25 | 10% | -54%[inhibitor] | -0.5 | 4
COc1ccc(C(=O)CN(CCC(=O)O)S(=O)(=O)c2ccc([N+](=O)[O-])cc2)cc1 | 0.5% | 3% | 4 | . | 12% | . | 0
Cc1ccccc1NC(=O)N1CCc2ccccc2C1 | . | 2% | -8 | 20% | 11%[15.4 µM] | -1.1 | 0
Cc1cc(C)nc(N/C(=N\S(=O)(=O)Cc2ccccc2)Nc2ccc(F)c(Cl)c2)n1 | 1.6% | 2% | -1 | 17% | -78%[inhibitor] | 0.3 | -13
O=C(OC(C(=O)NCc1ccco1)C(OC(=O)c1ccccc1)C(=O)NCc1ccco1)c1ccccc1 (stereo not given) | -3.4% | 8% | -9 | 0% | -7% | 4.1 | 5
CCN(C(=O)c1cnc(OC)cc1C(F)(F)F)c1ccc(Cl)cc1 | . | -12% | 0 | -9% | -10%[15.4 µM] | 4.5 | -19
Cc1ccc(NC(=O)COC(=O)CCC(=O)c2ccc(Cl)cc2)cc1S(=O)(=O)N(C)C | -1.3% | 0% | -25 | 25% | 1% | 3.7 | 6
CC(NC(=O)Nc1ccc(F)cc1F)c1ccc2c(c1)OCO2 (stereo not given) | -0.6% | 0% | -18 | -3% | -12% | 2.5 | -15
Cc1ccc(C)c(NC(=O)COC(=O)CCc2ccc(S(=O)(=O)N3CCOCC3)cc2)c1 | 1.8% | -23% | -4 | -5% | -3%[15.4 µM] | -5.1 | -3
Nn1nnc2ccccc21 | -2.4% | -4% | -5 | 15% | . | 0.4&0.0 | -11
COCOc1cc(O)c2c(=O)c(OCOC)c(-c3ccc(OCOC)c(OCOC)c3)oc2c1 | -2.7% | -9% | -9 | . | . | . | .
O=S1(=O)N=C(Nc2ccc(N3CCOCC3)c(Cl)c2)c2ccccc21 | . | 6% | 0 | 1% | -2% | -1.1 | -10
CCCCc1ccc(NC(=O)COc2ccc(C(=O)Nc3ccccc3OC)cc2)cc1 | . | . | . | 9% | . | 0.5 | 5
O=C(CCCCCNC(=O)c1ccccc1)C[N+](=O)[O-] | ? | 8% | -7 | 14% | -8%[15.4 µM] | -6.4 | -1
CSc1nnc(-c2cccn(Cc3ccccc3)c2=O)o1 | . | 1% | -6 | 1% | -5%[15.4 µM] | 0.0 | 10
COC(=O)c1c(C(=O)OC)c(-c2cccc(C)c2)n2c1CS(=O)C2 (stereo not given) | . | -6% | -3 | 14% | -11%[15.4 µM] | -2.0 | -2
COc1ccc(C(NC(=O)/C=C/c2ccco2)c2ccc(OC)c(OC)c2)cc1 (stereo not given) | 0.9% | 1% | -20 | 20µM* | 2% | 11 | 29
O=C(NCc1cccnc1)c1nc(-c2ccc(C(F)(F)F)cc2)no1 | -0.6% | 1% | -13 | 1% | -6% | -0.5 | -5
COc1cccc(C2CCCN2Cc2nc(CC3CC3)no2)c1 (stereo not given) | . | 7% | -2 | 7% | -4%[15.4 µM] | -0.1 | 1
COc1ccc(N(CC(=O)Nc2ccccc2C(=O)NCCc2ccccc2)S(C)(=O)=O)cc1OC | -1.5% | 4% | -7 | 11% | -17% | 3.6 | -6
CSc1nc(N(C)C)c2ccccc2n1 | . | -1% | -23 | 17% | 19%[15.4 µM] | -0.4 | 1
O=C(OCC(=O)N1CCCC1=O)c1cccc(S(=O)(=O)N2CCOCC2)c1 | -5.4% | 14% | -6 | 4% | 8%[15.4 µM] | . | 5
CS(=O)(=O)N(CC(=O)N1CCN(c2cccc(Cl)c2)CC1)C1CCCCC1 | -0.8% | -1% | -21 | -6% | -32%[inhibitor] | 0.6 | 10
COc1cc(OC)c(CN2CCC(CO)(CCOc3ccccc3)CC2)c(OC)c1 | . | 10% | -12 | 3% | 7% | -0.2 | 5
C=CCN1C(=O)C2(/C(=C(\O)c3ccc4c(c3)OCCO4)C(=O)C(=O)N2CCCOC)c2ccccc21 (stereo not given) | 1.2% | 20% | -9 | 3% | 32% | 1.9 | -17
COc1ccc(-c2cc(C(F)(F)F)nc(SCC(=O)NCCCN3CCOCC3)n2)cc1 | 3.8% | 4% | -2 | 26% | 7% | -5.8 | -1
CCOC(=O)[C@@H]1[C@H]2COc3ccc(Br)cc3[C@@H]2N2C(=O)N(c3cccc(Cl)c3)C(=O)[C@@]12C | 1.9% | -6% | -3 | . | -58%[inhibitor] | . | .
CC(C)(C)c1ccc(S(=O)(=O)Nc2ccccn2)cc1 | . | 10% | -2 | 30% | 0% | 1.3 | -12
NC(=O)COC(=O)/C=C/c1ccccc1[N+](=O)[O-] | . | 1% | -1 | 32% | 14%[15.4 µM] | -1.0 | 1
COc1ccc(CN2CCN(Cc3cc4ccccc4o3)CC2CCO)cc1C (stereo not given) | . | 2% | -19 | 11% | -33% | -1.1 | 4
COc1ccc(C(=O)NC2CC2)cc1OC1CCN(Cc2ccc(F)cc2Cl)CC1 | -2.1% | -2% | -22 | . | -7% | . | .
CCOC(=O)c1c(-c2ccc(C)c(C)c2)csc1NC(=O)C1CC=CCC1C(=O)O (stereo not given) | -6.4% | -4%[15.4 µM] | -7 | -6% | 17% | -0.4 | 21
Cc1ccc(C(=O)N2CCC(C(N)=O)CC2)cc1C | 1.8% | 3% | 7 | -18% | 22% | 1.6 | 30
CC(NC(=O)c1ccccc1O)c1ccccc1 (stereo not given) | 16µM* | 2% | -15 | 12% | 1% | 2.4 | -5
O=C(COC(=O)CCc1c[nH]c2ccccc12)NCc1ccc(Cl)cc1 | 1.1% | 21% | -9 | -6% | 2%[15.4 µM] | . | 3
O=C(c1cccn2c(=O)c3cc(Cl)ccc3nc12)N1CCOCC1 | 18µM* | 3% | -6 | 4% | 11% | 4.2 | -2
COc1cccc(-c2ccc3c(c2)C2CC3CCN2C(=O)c2ccc(-c3ccccc3)cc2)c1 (stereo not given) | 0.4% | . | -2 | . | -15% | . | .
CN(C)c1ccc(CN(C(=O)COc2ccc(F)cc2)C2CCS(=O)(=O)C2)cc1 (stereo not given) | -0.5% | -25% | 8 | 7% | -15% | 1.8 | 6
CCc1nc(CN2CCCC(C(=O)Nc3ccc(-c4cccc(OC)c4)cc3)C2)c(C)[nH]1 (stereo not given) | -10% | . | -25 | . | -64% | . | .
CCc1ccccc1NC(=O)CN(C)S(=O)(=O)c1ccc(-c2ccc(=O)[nH]n2)s1 | -2.3% | -10% | -6 | 16% | 14% | 10 | -17
Cc1cc(NC(=O)CSCC(=O)NC(C)c2ccccc2)no1 (stereo not given) | -3.4% | 6% | -1 | . | -31%[inhibitor] | . | .
CCN(CC)CCNC(=O)Cn1ncc2ccccc2c1=O | . | 0% | -14 | 20% | 19%[15.4 µM] | 1.9 | 12
